Compound activity from PubChem.
B2AR ag – beta2AR agonists driving receptor internalization, primary screen, cell-based, FAP fluorogen, flow cytometry. Beta-2 adrenergic receptor (Homo sapiens), P07550. response, % (no concentration beside the values). AID 504454, 2011. hit rate 0.43% among 340,000. Am2.2-beta2AR cells; reference of the scale not given here;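 active = response above a set limit, near 3 SD of response in nonfluorescent compounds, cut at about 42% in these data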;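 note: stock transfer was 100 nL into about 11 µL; a reference agonist was the positive control; negative values mostly stem from fluorescent compounds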
Target sequence (P07550 whole entry, looked up): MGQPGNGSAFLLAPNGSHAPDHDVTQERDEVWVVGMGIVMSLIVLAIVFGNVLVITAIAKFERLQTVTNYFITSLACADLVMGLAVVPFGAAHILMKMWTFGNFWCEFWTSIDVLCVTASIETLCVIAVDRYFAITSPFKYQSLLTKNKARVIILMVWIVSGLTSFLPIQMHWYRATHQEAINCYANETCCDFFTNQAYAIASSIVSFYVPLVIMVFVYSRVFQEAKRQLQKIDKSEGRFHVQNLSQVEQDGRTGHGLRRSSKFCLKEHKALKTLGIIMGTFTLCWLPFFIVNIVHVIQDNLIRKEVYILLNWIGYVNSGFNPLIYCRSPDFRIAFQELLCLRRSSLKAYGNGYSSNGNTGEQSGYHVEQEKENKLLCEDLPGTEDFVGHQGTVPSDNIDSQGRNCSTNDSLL
HNF4A DNA FP – change in binding of human HNF4A to DNA, primary screen, biochemical, fluorescence polarization, FITC-DNA. 1 h. activity change, % at 10 µM. hit rate 0.3% among 360,000; in the data active = activity change above about 30%, passing the limit was not always enough;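 note: controls were the assay level and a saturating level of protein; the project sought stronger binding though the title names inhibitors; some compounds called inactive have numbers as strong as hits; positive values seem to mean higher polarization but the record does not say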
RanGTP-Imp inh – inhibitors of RanGTP-importin-beta interaction, primary screen, biochemical, FRET, CFP-Ran, YFP-importin-beta, homogeneous. Ran GTPase (GTP-bound) - importin-beta complex. cell-free CFP-Ran/YFP-importin-beta FRET ratio. inhibition, % (no concentration beside the values). hit rate 1.1% among 300,000. AID 2216, 2009;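 active = most replicates above 15%; inconclusive = exactly half above 15%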;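 note: 0% = DMSO wells and 100% = Ran loaded with GDP instead of GTP; wells of about 40 µL received 100 nL stock; the first replicate is given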
LANA-H2A inh – blockers of LANA interaction with H2A/H2B – biochemical, FP readout, HTS, primary screen | AID 2629, 2010 | hit rate 0.6% among 320,000 | inhibition, % (concentration not given with the values) | Protein LANA1 (Human herpesvirus 8 type P (isolate GK18)), Q9QR71 | cell-free LANA-H2A/H2B peptide, fluorescence polarization; in the data active = inhibition mostly above about 10%, no sharp cut-off; inactive = mostly below about 6.7%;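 note: stock transfer was 7.5 nL into about 10 µL; 0% = median of vehicle wells and 100% = median of positive control wells; one replicate is shown; the record names a cut of 25% in any replicate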
ALR inh – inhibitors of human ALR sulfhydryl oxidase, primary screen, biochemical, H2O2 detection, HRP-luminol luminescence, single point; purified ALR, DTT oxidation; inhibition, % (no concentration beside the values); AID 485317, 2010; hit rate 3.8% among 290,000;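 active = mean and each replicate at 75% or more; inconclusive = only one of the two met; inactive = neither met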;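 note: stock transfer was 7.5 nL into about 7.5 µL; 0% = neutral wells and 100% = wells with inactivated enzyme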
Target sequence (P55789 whole entry, looked up): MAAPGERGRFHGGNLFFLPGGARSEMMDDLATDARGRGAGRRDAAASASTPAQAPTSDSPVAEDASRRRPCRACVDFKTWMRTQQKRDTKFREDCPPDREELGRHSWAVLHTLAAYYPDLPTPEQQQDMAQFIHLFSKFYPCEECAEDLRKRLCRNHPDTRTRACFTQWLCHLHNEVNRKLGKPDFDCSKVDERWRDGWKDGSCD
Vif A3G – inhibitors of Vif binding to APOBEC3G peptide, primary screen, biochemical, TR-FRET, GST-Vif 1-94, biotin-A3G peptide, dose response retest (AID 1117319); hit rate 0.57% among 260,000; one-dose inhibition, %; IC50 in µM for titrated hits; TR-FRET GST-Vif / biotin-A3G peptide binding; higher % means a stronger effect; test concentration not given here; strong numbers were not always called active;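 active = above the screen mean plus three standard deviations and confirmed in dose response; inconclusive = results disagree or hit not tested in dose response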;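 note: Vif residues 1-94 fused to GST binding biotinylated APOBEC3G peptide 110-148; 0% = full assay without inhibitor and 100% = GST in place of GST-Vif; retest series ran down from 100 µM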
Calb FLC – C. albicans growth inhibition with fluconazole, primary screen, CaCi-2 strain, Alamar Blue fluorescence; C. albicans CaCi-2 (fluconazole-resistant clinical isolate) + fluconazole, 48 h; growth inhibition, % (test concentration not listed); hit rate 0.57% among 300,000; AID 1979, 2009;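 active = most replicates above 75%; inconclusive = exactly half above 75%; inactive = most below 75%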;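 note: all wells also contain fluconazole at 8 µg/ml as a sub-toxic cotreatment; 0% = median of DMSO wells and 100% = median of geldanamycin control wells; wells of about 8 µL received 7.5 nL stock; the first replicate is given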
An asterisk follows results filed as active; ? = inconclusive; . = no result given; & = joins results of further samples.

SMILES	B2AR ag	HNF4A DNA FP	RanGTP-Imp inh	LANA-H2A inh	ALR inh	Vif A3G	Calb FLC
O=C(NN(c1ccccc1)c1ccccc1)c1ccc([N+](=O)[O-])o1	4	-1.9	?	1.2	55	-3%	?
COc1ccc(/C=C/C(=O)OCn2c(SC)nnc(C)c2=O)cc1OC	-2	0.7	0.2	6.8	3	1%	1
S=C(Nc1ccc(Oc2ccccc2)cc1)N1CCN(c2ccccn2)CC1	-25	-4.7	-0.4	-0.4	-8	-3%	-3
CCOC(=O)c1nn(-c2ccc(C)cc2)c(=O)cc1OCC(=O)Nc1cc(C)ccc1OC	2	2.2	-0.8	.	.	1%	-9
CCn1c(/C=C/c2ccccc2Cl)nc2ccccc2c1=O	-3	-3.0	4.5	-5.0	-4	-1%	2
NC(=O)C1CCN(C(=O)COc2ccc3ccccc3c2)CC1	-11	-3.1	1.1	0.6	-15	11%	-6
CC(=O)C1=C(C)NC(SCC(=O)Nc2nccs2)=C(C#N)C1c1ccccc1Cl (configuration not stated)	-14	3.0	3.9	-2.8	-7	.	3
O=C1CCCC2=C1C(c1ccc(OS(=O)(=O)c3ccc(Cl)cc3)cc1)C1=C(CCCC1=O)O2	-1	2.0	1.8	-0.5	-6	-1%	-5
O=C(c1ccc(Cn2c(=O)[nH]c3ccccc3c2=O)cc1)N1CCN(c2ccc(F)cc2)CC1	-3	14	0.3	0.7	-8	-2%	63*
O=C(OCc1nnc(-c2ccc(Cl)cc2)o1)C12CC3CC(CC(O)(C3)C1)C2	0	2.1	-1.7	2.3	-10	.	-15
CCOC(=O)N1CCN(c2c(NCc3ccccc3OC)c(=O)c2=O)CC1	7	0.6	5.1	3.4	-16	1%	-4
COC(=O)c1cccc(NC(=O)c2nn(C(C)C)c(=O)c3ccccc23)c1	6	0.5	-0.5	-0.2	-4	-9%	-15
COc1ccc(NS(=O)(=O)c2cc3c4c(c2)CCN4C(=O)CC3)c(OC)c1	-15	2.8	-5.0	.	.	-5%	-7
FC(F)(F)c1cccc(NC(=S)N2CCCCCC2)c1	-6	2.8	-0.6	-1.2	.	.	-5
O=C(Oc1ccc2ccccc2c1Br)N1CCCCCC1	62*	3.3	6.3	4.4	-8	-3%	3
O=C(Nc1nccs1)c1cc2sccc2n1Cc1ccc(Cl)cc1	1	-0.2	-1.5	3.7	.	-36%	4
CC12CN3CCN(CC(C3)/C1=N\NC(=O)Nc1cccc(Cl)c1)C2	11	1.0	-3.1	-2.8	-21	-6%	-7
CC(C)Sc1nnc(NC(=O)CCc2ccccc2)s1	0	-0.8	-2.2	7.9	-15	3%	-5
Cc1ccc(OCC(O)CN2CCC(Cc3ccccc3)CC2)c(C)c1 (configuration not stated)	-9	1.6	2.3	-1.4	-3	2%	-3
O=C(CC1(O)C(=O)Nc2ccccc21)c1cccc(Br)c1 (configuration not stated)	-1	-1.5	2.7	4.9	1	-11%	1
COCCCNC(=O)c1cc2cc3cc(OC)ccc3nc2o1	-9	0.0	?	1.1	-6	.	12
CCn1c(CC(=O)Nc2ccccc2)nnc1SCC(=O)Nc1nnc(C)s1	2	-0.3	-3.6	-5.8	3	.	5
CC(=O)c1cccc(NC(=S)NCCCCc2ccccc2)c1	1	1.9	1.9	-1.0	-20	24%	-31
CC1(C)CC(=O)N(c2cccc(Cl)c2)C(=O)C1	17	3.7	6.9	7.9	-11	-4%	-1
CCOc1ccccc1NC(=O)C1CCCN(S(=O)(=O)c2cccc3cccnc23)C1 (configuration not stated)	1	-0.8	2.0	-6.9	-7	-2%&3%	9
COc1cccc(-c2cc(C(=O)N3CCN(c4ncccn4)CC3)c3ccccc3n2)c1	15	0.1	1.3	-5.4	-28	-4%	9
COc1ccc(NC(=O)CCC(=O)OCc2ccc([N+](=O)[O-])cc2)cc1	6	-2.4	1.9	0.0	0	2%	5
CC1CCCN(C(=O)Cc2ccc(F)cc2)C1 (configuration not stated)	0	-2.1	-3.1	11	.	3%	-3
CC1(C(=O)OCC(=O)Nc2ccccc2)CC1(Cl)Cl (configuration not stated)	3	-3.3	5.1	.	.	-3%	-1
CC1CN(S(=O)(=O)c2cccc(C(F)(F)F)c2)CC(C)O1 (configuration not stated)	-10	0.5	1.3	3.4	-12	.	-2
CC1OC2(C)OC(=N)C1(C#N)C(C#N)(C#N)C2c1ccccc1 (configuration not stated)	7	-4.1	23*	2.4	-13	.	9
CCN(CCn1cccn1)C(=O)CCc1nnc(CCCc2ccccc2)o1	-9	-4.0	-1.2	-7.8	.	0%	15
O=C(COC(=O)c1ccccc1-c1ccccc1[N+](=O)[O-])c1ccccc1	12	-0.1	0.7	0.9	-2	16%	0
O=C(NCc1ccco1)C1CCCN1C(=O)Nc1ccccc1[N+](=O)[O-] (configuration not stated)	-2	1.1	-5.7	-11	3	.	2
CCN(CC)C(=O)CN1C(=O)/C(=C/c2ccccc2)SC1=S	-7	2.3	3.5	-3.8	-6	-8%	9
CC(=O)C[C@@H](O)CC(=O)[C@H]1OC(=O)[C@H](C)CCCCc2ccccc21	5	-2.1	.	-1.1	.	3%	.
Cc1ccn(CC(=O)N/N=C/c2cc([N+](=O)[O-])ccc2O)n1	2	-0.2	-1.7	-2.5	1	?	24
COC(=O)c1nnn(-c2nc(N(C)C)nc(N(C)C)n2)c1C	0	5.0	4.0	-0.7	24	-7%	4
CC1=NN(C(N)=S)C(=O)C1N=Nc1cccc2ccccc12 (configuration not stated)	.	.	1.6	0.8	-14	6%	108*
COc1ccc(CCn2c(=N)c(C(=O)NC3CCCC3)cc3c(=O)n4ccccc4nc32)cc1	-13	2.5	-2.4	-0.3	-4	1%	-2
COc1ccc(CCNC(=O)c2nc3ncccn3n2)cc1OC	4	1.2	3.9	11	.	4%	-4
O=C(c1ccc(F)cc1)N1CCC(c2ccccc2)C1 (configuration not stated)	12	-6.4	2.2	-0.1	-6	0%	3
C=CCN(c1ccccc1)S(=O)(=O)c1ccc2[nH]cc(C(=O)NCCOC)c(=O)c2c1	7	1.2	-1.2	-3.5	.	-6%	-5
COc1ccccc1NC(=O)COC(=O)/C=C/c1ccc(OC)c(OC)c1	8	4.0	.	1.7	2	.	.
COC(=O)c1ccc(C2C(C(=O)c3ccco3)=C(O)C(=O)N2CC2CCCO2)cc1 (configuration not stated)	-2	1.9	-0.4	-4.0	.	.	-5
CCCCn1c2c(c3ccccc31)CCc1nonc1-2	0	0.8	0.3	0.3	40	.	0
COc1ccc(NCC(=O)NN=C2CCS(=O)(=O)c3ccc(F)cc32)cc1	.	0.5	.	-0.7	30	.	.
CN(C)CCN(C(=O)c1ccco1)c1nc2cc3c(cc2s1)OCCO3	-7	-1.1	1.2	6.5	-6	.	-1
COc1cccc(NC(=O)CN(C)C(=O)/C=C/c2cn(Cc3ccccc3)nc2-c2cccnc2)c1	9	3.2	-1.7	-1.3	-14	-10%	-5
O=S(=O)(O)c1ccc(Cl)c(Cl)c1	-2	1.5	.	.	.	-5%	.
CCCn1c(SCC(N)=O)nnc1C(C)C	-5	-3.2	3.1	1.7	-4	10%	-2
Cc1cccc(N2CC(C(=O)Nc3ccc(S(=O)(=O)N4CCOCC4)cc3)CC2=O)c1 (configuration not stated)	0	0.8	-1.2	-2.3	3	9%	16
COCCn1nnnc1C(c1cccc(C(F)(F)F)c1)N1CCOCC1 (configuration not stated)	8	-0.3	3.0	2.7	-9	.	-19
Cc1cc(Cl)c(S(=O)(=O)NC2CCCC2)cc1OCC(=O)NC1CCCCC1	-6	0.5	-2.2	-4.7	-11	-2%	-20
COc1ccc(/C(C)=N\NC(=O)CSc2nnc(C)s2)cc1	1	2.2	1.1	-6.3	.	1%	-4
N#Cc1ccccc1Cn1c(-c2cscn2)nc2ccccc21	4	-4.1	-1.1	-3.2	-2	-10%	11

Remaining list, next part:
SMILES	B2AR ag	HNF4A DNA FP	RanGTP-Imp inh	LANA-H2A inh	ALR inh	Vif A3G	Calb FLC
CC(/C=C/c1ccc(O)cc1)=NNc1ccccc1	17	-3.5	.	.	.	-3%	.
COC(=O)c1sc2ncccc2c1OCc1c(Cl)cccc1Cl	0	1.8	?	-0.8	-22	-7%	-23
O=C1OC[C@@H]2CCCN2C(=O)[C@H](CC(=O)N(CCO)Cc2ccccc2)C/C=C\CC[C@@H]1Cc1ccc(F)cc1	3	-5.1	.	4.5	-11	.	.
CCc1ccccc1OCCCCN1CCCC1	4	1.2	-3.0	-2.1	4	-9%	-8
O=C(NCc1ccccn1)c1ccc(Cl)c(S(=O)(=O)N2CCCCCC2)c1	2	0.6	-1.0	-6.5	-2	.	1
CSc1ccccc1NC(=O)CN(C)C(=O)COc1ncnc2ccccc12	-2	-1.6	.	-2.7	12	.	.
Cc1cccc(N(CC(=O)NC2CCCCC2)C(=O)CCCC(=O)Nc2ccccn2)c1	12	-3.4	5.6	3.0	-10	5%	2
CCc1cccc(CC)c1NC(=O)C(NS(=O)(=O)c1cccs1)c1ccccc1 (configuration not stated)	4	1.3	-0.6	-0.6	-22	10%	-3
CCC(c1nc2ccccc2c(=O)n1CCN1CCOCC1)N1C(=O)c2ccccc2C1=O (configuration not stated)	-7	2.8	?	-2.3	2	-2%	-14
COc1ccc(/C=N/NC(=O)CSc2nnc(C)n2-c2ccccc2)c(OC)c1OC	9	4.6	-2.1	2.0	.	6%	-3
Cc1cc(NC(=O)CSc2nnnn2-c2ccccc2)no1	-6	-0.9	-1.7	-1.2	-3	-5%	1
CCn1cc(C(=O)NNC(=O)c2ccc(Cl)cc2)c(=O)c2ccc(C)nc21	0	-3.1	1.9	-6.0	-1	11%	1
Cc1ccccc1C(=O)Nc1ccc(-c2nnc(SC(C)C(=O)O)n2C)cc1 (configuration not stated)	2	0.2	1.2	-0.2	-12	5%	1
COc1cc(-n2c(=O)c3ccccc3n(CC(=O)c3ccc(F)cc3)c2=O)cc(OC)c1OC	-7	0.9	0.7	-4.2	-10	8%	0
c1cc2c(cc1C1CCCCC1)c1c3n2CCN=C3CCC1	15	1.4	-14	-12	4	.	-6
CN(C)S(=O)(=O)c1cccc(C(=O)NCc2cccs2)c1	-2	1.5	-0.9	-5.2	-3	0%	24
CC(=O)c1ccc(OCCCC(=O)Nc2ccc(S(=O)(=O)N3CCOCC3)cc2)cc1	2	0.8	1.3	-0.4	-9	3%	0
CN(Cc1cccnc1)Cc1cn(C)nc1-c1cccc(Cl)c1	-4	3.2	1.8	3.3	-2	-4%	5
CCOc1ccc(N(CC(=O)N2CCOCC2)S(=O)(=O)c2ccc(F)cc2)cc1	-4	1.0	1.2	1.7	5	.	-3
N#Cc1ccc(CN2CCN(C(=O)CCNS(=O)(=O)c3ccc(F)c(F)c3)CC2)cc1	-13	-2.1	.	2.8	2	-12%	.
CC1CC(OC(=O)c2ccccc2C(=O)c2ccc(Cl)cc2)C(=O)O1 (configuration not stated)	-3	3.7	.	6.8	-2	-6%	.
CCCCN(Cc1cc2cc(OC)ccc2[nH]c1=O)C(=O)COc1ccccc1	9	-2.0	-0.3	0.4	-15	-2%	7
CCC(C)[C@@H](C(=O)N1CCNCC1)n1cc(CCCN=C(N)N)nn1 (some centres not stated)	-1	0.1	-5.7	-4.5	.	.	-7
